# Insulin prom inh – inhibitors of insulin promoter-driven GFP, primary screen, imaging, TRM-6 cells (human fetal islet line), eGFP reporter, cell count | reporter expression induced with tamoxifen | inhibition, % at 2 µM | 0.9% of 130,000 active;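 active means inhibition above the mean plus 3 SD, with well images judged a real hit on visual review, cut at about 60% in these data, passing the limit was not always enough; inconclusive means inhibition over the cutoff but images rejected on review; inactive means inhibition not above the cutoff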
# HSV replic up – enhancers of HSV replication in host cells, fold increase, host cell viability; HSV replication augmentation in cells; maximum fold increase; 0.005% of 220,000 active;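 active means peak rise of 1.5-fold or more in the series; inconclusive means self-fluorescent or not available for retest; tested in PC3 cells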;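 further: first round at 10 µM; read as green reporter fluorescence; hits show the peak of a series up to 25 µM; 1 = signal of infected wells without compound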
# GALR2 ag – GALR2 receptor agonists, primary screen, cell-based. Galanin receptor type 2 (Homo sapiens), O43603. GALR2-expressing cells, agonist activation read-out. activation, %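 (tested at 5 µM)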. 0.48% of 140,000 active. AID 803, 2007;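 active means above mean plus 3 SD of all compounds, about 5% in these data, not always enough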;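 further: 0% = vehicle buffer wells and 100% = reference agonist at full effect; tested in CHO reporter cells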
# Target sequence (O43603 whole entry, looked up): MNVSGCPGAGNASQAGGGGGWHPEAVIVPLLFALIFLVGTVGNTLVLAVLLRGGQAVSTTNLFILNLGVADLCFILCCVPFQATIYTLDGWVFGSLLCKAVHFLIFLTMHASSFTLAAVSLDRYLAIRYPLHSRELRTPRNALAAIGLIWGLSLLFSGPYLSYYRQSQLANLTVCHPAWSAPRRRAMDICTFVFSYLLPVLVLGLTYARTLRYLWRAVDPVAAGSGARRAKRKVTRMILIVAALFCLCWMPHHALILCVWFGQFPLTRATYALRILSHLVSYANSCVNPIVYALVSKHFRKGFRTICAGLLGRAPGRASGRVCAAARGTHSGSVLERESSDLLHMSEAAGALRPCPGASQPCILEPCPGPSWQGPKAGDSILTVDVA
# RGS16-Gao – modulators of RGS16 binding to Galphao, primary screen, biochemical, human proteins, multiplexed bead flow cytometry; Regulator of G-protein signaling 16 (Homo sapiens) + Guanine nucleotide-binding protein …; binding response (% of control), % at 10 µM; bead-based flow cytometry RGS16-Galphao binding, fluorescence; actives lie on both sides; AID 1441, 2008; 0.38% of 220,000 active;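 active means below 25% or above 175%, edge rows of some plates excepted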;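 further: Galphao activated by GDP with aluminum fluoride before binding; 100% = wells without compound and 0% = beads without RGS; some results beyond the cut were filed as inactive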
# Target sequence (O15492 whole entry, looked up): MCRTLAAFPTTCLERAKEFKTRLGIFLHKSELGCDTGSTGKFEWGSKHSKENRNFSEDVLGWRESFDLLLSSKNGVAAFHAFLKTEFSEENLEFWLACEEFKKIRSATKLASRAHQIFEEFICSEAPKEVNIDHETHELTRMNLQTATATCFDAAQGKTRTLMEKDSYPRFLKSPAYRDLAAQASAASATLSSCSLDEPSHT
# Target sequence (P09471 whole entry, looked up): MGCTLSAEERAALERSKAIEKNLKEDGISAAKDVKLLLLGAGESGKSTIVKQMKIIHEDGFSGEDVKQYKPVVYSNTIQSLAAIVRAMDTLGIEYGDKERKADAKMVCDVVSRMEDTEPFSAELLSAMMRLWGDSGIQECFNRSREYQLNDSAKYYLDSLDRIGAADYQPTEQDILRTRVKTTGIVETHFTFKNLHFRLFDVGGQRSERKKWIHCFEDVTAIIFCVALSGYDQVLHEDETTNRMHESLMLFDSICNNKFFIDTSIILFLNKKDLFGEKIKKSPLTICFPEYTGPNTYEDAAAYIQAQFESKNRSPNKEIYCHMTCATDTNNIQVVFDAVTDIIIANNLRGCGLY
# PKD1 kinase inh – inhibitors of human PKD1 kinase, biochemical, fluorescence polarization. Serine/threonine-protein kinase D1 (Homo sapiens), Q15139. PKD1 kinase fluorescence polarization assay. inhibition, %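 (about 10 µM by stock and volumes)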. 0.056% of 200,000 active. AID 797, 2007;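 active means inhibition of 50% or more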;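 further: controls were vehicle for no effect and a reference inhibitor for full effect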
# Insulin prom inh cell count – further read-out of Insulin prom inh, marked with its call; normalized cell count, %; measured here: cell count, toxicity; reference of the scale not given here;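 cells exposed to compound for 48 h; stained nuclei by imaging scaled within each plate; lower means fewer cells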
# HSV replic up primary fold – also measured in HSV replic up; calls as there; fold increase; compound at 10 µM; measured here: primary screen fold increase 10 uM; tested in PC3 cells;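 GFP signal in the first replicate; 1 = infected wells without compound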
# * marks the source's active call; other numbers are inactive results; i = inactive; ? = inconclusive; · = no result given.
SMILES,Insulin prom inh,Insulin prom inh cell count,HSV replic up,HSV replic up primary fold,GALR2 ag,RGS16-Gao,PKD1 kinase inh
CCOc1ccc2[nH]c(=O)c(CN(Cc3ccccc3)C(=O)N3CCCC3)cc2c1,46,99,i,0.95,-2.8,93,-6
CC(C)=CCN1CCN(Cc2c(C)nn(C)c2Cl)CC1CCO (centres undefined),·,·,i,0.99,·,111,-1
Cc1ccc(-n2c(C)nnc2SCC(=O)NNC(=O)c2ccco2)cc1,i,111,i,0.98,·,108,1
C=CCC1(O)C(=O)N2C(=C1C(=O)N1CCOCC1)c1ccccc1CC2(C)C (centres undefined),9,87,i,0.87,-1.1,106,-3
CC(Cc1cccs1)NC(=O)Nc1ccc(Cl)c(Cl)c1 (centres undefined),-37,139,·,·,-4.3,87,1
COc1ccc([N+](=O)[O-])cc1N(CC(O)CN(C)C)S(=O)(=O)c1ccccc1 (centres undefined),19,69,i,1.1,0.0,102,-17
Cc1ccc(S(=O)(=O)Nc2cc(NC(=O)CN3CCOCC3)ccc2Cl)cc1,-110,114,i,0.91,-1.7,98,-8
Cn1cnc(S(=O)(=O)Nc2ccccc2C(=O)NCC2CC2)c1,·,·,i,1,·,108,·
Cc1cc(NC(=O)NC(=O)c2ccc(F)cc2F)n[nH]1,·,·,i,1.1,-0.4,96,-7
Cc1ccc(C)c2c1cc(C)c1nnc(SCc3ccccn3)n12,-15,94,i,0.83,-2.9,100,-10
CCN(CC)c1ccc(-c2nnc(SCC(=O)Nc3ccccc3C#N)n2-c2ccccc2)cc1,0,143,i,0.84,-4.3,101,2
Cc1ccc(-c2n[nH]c(S(C)(=O)=O)c2C#N)cc1,·,·,i,0.93,·,96,·
COc1cccc(-n2c(CN3CCN(c4ccccn4)CC3)nc3ccc([N+](=O)[O-])cc3c2=O)c1,·,·,i,0.93,·,97,-8
C=CCN1C(=O)C2(c3ccccc31)C1CCCC=C1C(C#N)=C(N)C2(C#N)C#N (centres undefined),33,131,i,1.1,-3.1,69,-8
O=C(Nc1cccc2c1CCCC2)c1ccncc1,18,113,i,1.3,-1.0,100,-1
O=C(CSc1nc(-c2ccccc2)cs1)NCc1ccco1,20,72,i,1.1,-3.1,104,-7
O=C(NC(CCl)c1ccccc1)c1ccc(Cl)cc1 (centres undefined),·,·,i,1,·,96,8
CCCCCOc1ccc(N2C(=O)C(C)CNC2=S)cc1 (centres undefined),·,·,i,1,·,100,·
CC(C)(C)NC(=O)NC(=O)COC(=O)Cc1ccc(Cl)cc1Cl,-19,127,i,1,·,86,9
CC(=O)Nc1ccc(S(=O)(=O)N(C)c2ccc(OCC(=O)OCC(=O)Nc3ccc(OC(F)F)cc3)cc2)cc1,·,·,i,0.95,·,98,·
Cn1nnnc1SCc1nc2ccccc2[nH]1,·,·,i,0.85,-1.1,104,2
C/C(=N\NC(=O)CNC(=O)C(c1ccccc1)c1ccccc1)c1ccccc1,·,·,i,0.92,0.2,103,4
COC(=O)C1CC(c2ccc(Cl)cc2)=NO1 (centres undefined),0,88,i,0.91,·,100,-2
CCCCCC(=O)NC(Cc1ccc(OC)c([N+](=O)[O-])c1)C(=O)O (centres undefined),-12,101,i,1,·,104,-3
CCC1(c2ccccc2)NC(=O)N(Cc2ccc(C(=O)OC)cc2)C1=O (centres undefined),·,·,i,1.1,-0.5,118,0
O=C(Nc1nc2cc3c(cc2s1)OCCO3)c1cccc(S(=O)(=O)N2CCOCC2)c1,·,·,·,·,-0.5,·,-10
CN(C)c1ccnc(Oc2ccc(Cl)cc2)c1C#N,·,·,i,1.1,-1.3,103,4
COc1ccccc1N1CCN(C(=O)COc2ccc(C)cc2Br)CC1,·,·,i,0.81,-1.1,101,-3
Cc1cc(C)cc(Oc2ccccc2/C=N\O)c1,-223,100,i,0.95,-0.7,100,-8
CCOc1ccc(NC(=O)C2C3CC/C=C\CCC32)cc1 (centres undefined),·,·,i,0.98,·,104,·
COC(=O)c1ccc(-c2ccco2)n1Cc1nc(-c2ccc(OC)c(OC)c2)oc1C,0,101,?,·,-1.9,109,7
C=CCNC(=O)C(=O)N/N=C/c1ccco1,·,·,i,1.2,0.2,64,3
CC(=O)c1c(C)oc2ccc(N(C(=O)c3ccncc3)S(=O)(=O)c3ccccc3)cc12,·,·,i,0.85,·,98,0
O=C(CN1CCN(C(=O)c2ccco2)CC1)Nc1cccc([N+](=O)[O-])c1,23,59,i,1,·,82,8
O=C1c2ccc3c4c(ccc(c24)C(=O)N1c1ccc(O)cc1)C(=O)N(c1ccc(O)cc1)C3=O,·,·,i,0.93,·,106,-4
O=C(Nc1cccc(C(F)(F)F)c1)OCCN1CCN(Cc2ccccc2)CCC1=O,-65,97,i,0.81,-0.9,101,-8
CCS(=O)(=O)N1CCC(C(=O)NCc2ccc(OC)cc2)CC1,33,89,i,0.91,·,117,2
CCOCCCNC(=O)C(NC(=O)Cc1cccs1)c1ccc(OC)cc1 (centres undefined),·,·,i,1,·,102,-8
C/C(=N/O)c1ccc2c(c1)OCCOCCOc1cc(/C(C)=N/O)ccc1OCCOCCO2,-44,60,i,0.66,-1.6,101,-5
COc1ccc(-c2cn3nc4c(nc3n2)CCCC4)cc1,10,165,·,·,0.1,106,5

# Single records, as listed above. Order of screens: Insulin prom inh | Insulin prom inh cell count | HSV replic up | HSV replic up primary fold | GALR2 ag | RGS16-Gao | PKD1 kinase inh
# Shown for `CCOCCCNC(=O)C(NC(=O)Cc1cccs1)c1ccc(OC)cc1` (centres undefined) → · | · | i | 1 | · | 102 | -8
# Shown for `Cn1nnnc1SCc1nc2ccccc2[nH]1` → · | · | i | 0.85 | -1.1 | 104 | 2
# Shown for `COC(=O)c1ccc(-c2ccco2)n1Cc1nc(-c2ccc(OC)c(OC)c2)oc1C` → 0 | 101 | ? | · | -1.9 | 109 | 7
# Shown for `C=CCNC(=O)C(=O)N/N=C/c1ccco1` → · | · | i | 1.2 | 0.2 | 64 | 3
# Shown for `CN(C)c1ccnc(Oc2ccc(Cl)cc2)c1C#N` → · | · | i | 1.1 | -1.3 | 103 | 4

# (list continues)
SMILES,Insulin prom inh,Insulin prom inh cell count,HSV replic up,HSV replic up primary fold,GALR2 ag,RGS16-Gao,PKD1 kinase inh
CC1CCc2ccccc2N1C(N)=Nc1ccccc1 (centres undefined),·,·,i,1,·,95,-2
COc1ccccc1Oc1ncnc2c1oc1ccccc12,-21,75,i,0.91,·,109,4
COCCCNc1nc2c(c(=O)[nH]c(=O)n2C)n1CC(O)COc1cccc(C)c1 (centres undefined),·,·,i,0.75,-3.0,95,-2
COc1ccccc1Oc1ccc2c(c1)C(=O)N(c1cccc3ncccc13)C2=O,20,88,i,1.1,-0.3,181,-5
COc1ccc(C2C(C#N)=C3NC(=O)c4c(sc5c4CCCCC5)N3C3=C2C(=O)CC(C)(C)C3)cc1 (centres undefined),·,·,·,·,-1.4,99,-1
Cc1c(C(=O)N/N=C/c2ccc(Cl)cc2)[nH]c2ccc(Cl)cc12,-56,14,i,0.64,0.4,106,-11
COc1cc(-c2nnc(COC(=O)c3cc(C)nc4ccc(C)cc34)o2)cc(OC)c1OC,9,82,i,1.1,0.5,110,-6
COc1ccc(Oc2ccccc2C=O)cc1,-16,92,i,0.89,-2.1,118,1
N/C(=N/OCC(=O)Nc1cccc2ccccc12)c1nonc1N,20,94,i,0.98,-2.8,92,-16
COc1ccc(N2CCN(C(=O)Cn3cncn3)CC2)cc1,36,122,i,0.87,·,105,-8
COC(=O)N/N=C/c1ccc(-c2ccc(Cl)cc2Cl)o1,·,·,i,0.91,·,104,·
CCN(CC)C(=O)CSC1=N/C(=C/c2ccco2)C(=O)N1c1ccc(OC)c(Cl)c1,·,·,i,1,-0.5,102,-5
O=C(NCCCN1CCN(c2ccccc2F)CC1)Nc1ccccc1[N+](=O)[O-],78*,95*,i,0.96,·,110,-6
O=C(NC1CCS(=O)(=O)C1)/C(=C\c1ccc(F)cc1)NC(=O)c1ccccc1 (centres undefined),-43,69,i,0.7,·,109,-2
CCOC(=O)c1ccc(NC(=O)c2cnccn2)cc1,-110,99,i,0.95,-0.2,105,-8
COc1ccc(/C=C(/NC(=O)/C=C/c2ccccc2)C(=O)NCCCCCC(=O)O)cc1,·,·,i,1.1,·,95,·
O=C(CCn1cnc2ccccc2c1=O)Nc1ccc2c(c1)OCCO2,-114,81,i,0.89,-3.3,102,-1
Cc1cc(C)c(C#N)c(N2CCN(CCOc3ccc(Cl)cc3)CC2)n1,40,109,i,1.1,-0.9,103,-5
CCn1c(C)nc2cc(C(=O)OCCC(F)(F)F)ccc21,33,89,i,0.86,-1.2,97,-8
O=C(C1CCCO1)N1CCN(C(=S)Nc2ccc(Cl)c(Cl)c2)CC1 (centres undefined),-13,115,i,0.92,-1.4,109,-7
CCCCC(=O)N/N=C(\C)CC(=O)Nc1ccccc1Br,·,·,i,0.81,-0.9,102,-6
Cc1ccc(NC(=O)CSc2nc3ccccc3c(=O)n2CCCC(=O)N2CCCC2)cc1,-106,71,i,0.74,-0.2,98,-12
O=C1Nc2ccccc2Oc2cc([N+](=O)[O-])cc(Oc3ccccc3)c21,-183,87,·,·,0.3,171,-4
Cc1ccc(N=Nc2cc(C)ccc2N)cc1,·,·,i,0.89,·,98,·
Cc1ccc(S(=O)(=O)NNC(=O)CCC(=O)Nc2ccc(C)cc2C)cc1,·,·,i,1.1,-1.0,96,-6
O=C(O)c1cccnc1Sc1ccccc1Cl,·,·,i,0.92,·,79,·
Clc1ccccc1/C=C/c1ccnc2ccccc12,·,·,i,1,·,100,·
CC1(c2ccc(O)cc2)NC(=O)N(c2ccccc2)N1 (centres undefined),-73,71,i,1,·,107,-9
Cc1c(Cl)ccc(S(=O)(=O)N2CCN=C2c2ccccc2)c1Cl,·,·,i,0.94,-0.8,108,-5
COc1ccccc1NS(=O)(=O)c1cccc(C(=O)N/N=C/c2ccc(C)o2)c1,·,·,i,1.1,·,98,0
COc1cc(SC)ccc1C(=O)NC(C)C,·,·,i,0.99,·,101,-3
O=C(NC(=O)c1ccc(F)cc1)Nc1nc(-c2cccs2)cc(C(F)(F)F)n1,-80,89,·,·,-3.1,100,-9
OCCNc1nc(-c2ccccc2)c2ccccc2n1,-14,95,·,·,-0.6,63,-2
COc1ccccc1NC(=O)N1CCc2[nH]c3ccc(F)cc3c2C1,25,142,i,0.91,-0.8,80,3
COc1ccc(-c2nc(-c3ccccc3)c(-c3cc([N+](=O)[O-])ccc3C)[nH]2)cc1OC,-52,94,i,0.9,-1.1,90,-4
COc1ccc(CCNC(=O)C2CCN(C(=O)N(C)C)CC2)cc1OC,38,34,i,0.97,0.6,103,-8
Cc1nc(-c2ccc3c(c2)OCCCO3)cs1,·,·,i,1,·,96,·
CCc1c(C(=O)NNC(=S)NC2CCCCC2)csc1C,·,·,i,0.78,·,100,1
Cc1nnc2sc(-c3csc4c3CCCC4)nn12,-18,77,i,0.9,-0.6,109,-4
CCOC(=O)COc1nc2c(c(-c3ccco3)c1C#N)CCc1ccccc1-2,·,·,i,1,·,85,·
COc1cc2[nH]c(=O)n(CCCCCC(=O)NCCCN3CCOCC3)c(=O)c2cc1OC,-28,128,i,0.84,-0.4,103,-4
Clc1ccc(-c2n[nH]c3c2CCCC3)cc1,-38,129,i,0.79,·,101,-1
O=c1cc(C(F)(F)F)[nH]c2c(C(F)(F)F)cccc12,-32,110,i,0.92,-2.2,103,0
Cc1cc(C)c(NC(=O)C(C)(C)C)c(Cl)c1,·,·,i,0.96,-0.8,96,-5
O=C1CSC(=Nc2ccccc2Cl)N1,-8,125,i,0.91,-1.6,90,-15
Cc1ccc(S(=O)(=O)N2CCOC2C(Cl)(Cl)Cl)cc1 (centres undefined),·,·,i,0.98,·,90,·
Cc1cccc2cc(/C=C3\N=C(c4ccccc4)OC3=O)c(N3CCOCC3)nc12,·,·,·,·,-1.5,97,-7
COc1ccccc1-c1nnc(SCc2nc3ccccc3[nH]2)n1C,-27,144,i,1,-2.1,100,1
CCN(CC)S(=O)(=O)c1ccc(N2CCOCC2)c(NC(=O)c2ccc(OC)c([N+](=O)[O-])c2)c1,·,·,i,0.69,·,103,·
O=C(O)c1cc2sccc2s1,-18,98,i,0.95,-1.5,105,2

# High-throughput results deposited in PubChem BioAssay by several laboratories.
